Compound activity from PubChem.
E coli growth = E. coli growth inhibition, primary screen, OD600 | Escherichia coli growth, 23 h; hits give low values | OD600 absorbance (concentration not given with the values) | 0.21% of 330,000 active;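 active means OD600 absorbance below the run mean of sample wells minus 3.6 SD, in any replicate, cut at about 0.56 in these data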;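 further: stock transfer was 300 nL into about 60 µL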
LANA-H2A inh = blockers of LANA interaction with H2A/H2B – biochemical, FP readout, HTS, primary screen | Protein LANA1 (Human herpesvirus 8 type P (isolate GK18)), Q9QR71 | cell-free LANA-H2A/H2B peptide, fluorescence polarization | inhibition, % (no concentration beside the values) | 0.6% of 320,000 active; in the data active means inhibition mostly above about 10%, no sharp cut-off; inactive means mostly below about 6.7%;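 further: stock transfer was 7.5 nL into about 10 µL; 0% = median of vehicle wells and 100% = median of positive control wells; one replicate is shown; the record names a cut of 25% in any replicate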
FGF22 binding = binders of human FGF22 protein, primary screen, FGF22 synaptogenesis inhibitor project, biophysical, thermal shift, single point; Fibroblast growth factor 22 (Homo sapiens), Q9HCT0; recombinant FGF22 thermal shift, SYPRO orange fluorescence; percent of sucrose octasulfate shift, DMSO zero; calls only at 9.99 µM; 1.5% of 340,000 active; AID 651658, 2012;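 active means melting point raised past a set limit in the mean and every replicate; inconclusive means no clear call; three in four hits are not shown here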
Target sequence (Q9HCT0 whole entry, looked up): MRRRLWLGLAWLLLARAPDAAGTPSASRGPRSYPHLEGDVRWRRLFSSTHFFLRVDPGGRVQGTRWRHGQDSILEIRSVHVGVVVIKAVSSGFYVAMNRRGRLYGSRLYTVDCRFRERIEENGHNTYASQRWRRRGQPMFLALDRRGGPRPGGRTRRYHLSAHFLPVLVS
ALR H2O2 inh = inhibitors of human ALR sulfhydryl oxidase, primary screen, biochemical, H2O2 detection, HRP-luminol luminescence, single point; FAD-linked sulfhydryl oxidase ALR (Homo sapiens), P55789; purified ALR, DTT oxidation; inhibition, % (test concentration not listed); 3.8% of 290,000 active; AID 485317, 2010;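 active means mean and each replicate at 75% or more; inconclusive means only one of the two met; inactive means neither met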;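 further: stock transfer was 7.5 nL into about 7.5 µL; 0% = neutral wells and 100% = wells with inactivated enzyme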
Target sequence (P55789 whole entry, looked up): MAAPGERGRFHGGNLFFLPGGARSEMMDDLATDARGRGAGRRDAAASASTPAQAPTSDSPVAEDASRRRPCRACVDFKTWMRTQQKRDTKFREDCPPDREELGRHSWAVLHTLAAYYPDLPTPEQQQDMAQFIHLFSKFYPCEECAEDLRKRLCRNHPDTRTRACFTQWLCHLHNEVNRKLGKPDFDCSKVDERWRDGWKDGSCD
UCH37 inh = inhibitors of human UCH37 deubiquitinase, primary screen, biochemical, Ub-AMC cleavage, fluorescence. Ubiquitin carboxyl-terminal hydrolase isozyme L5 (Homo sapiens), Q9Y5K5. purified proteasome/UCH37. inhibition, % (test concentration not listed). 0.33% of 330,000 active. AID 588478, 2011;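 active means mean of two replicates above 20%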;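 further: 0% = compound-free wells with enzyme and 100% = wells lacking proteasome; stock transfer was 100 nL into about 20 µL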
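Schedule: 30 min plus 25 min, room temperature / Material: human UCH37 within purified proteasomes / Technique: AMC fluorescence intensity at 355/460 nm / Buffer or medium: pH 7.4 Tris-HCl (50 mM) with ovalbumin, ATP-MgCl2, DTT / Controls: wells without proteasome as full block, compound-free enzyme plus substrate as uninhibited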
Beta2AR agonist = beta2AR agonists driving receptor internalization, primary screen, cell-based, FAP fluorogen, flow cytometry; Beta-2 adrenergic receptor (Homo sapiens), P07550; Am2.2-beta2AR cells; reference of the scale not given here; response, % (test concentration not listed); 0.43% of 340,000 active;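 active means response above a set limit, near 3 SD of response in nonfluorescent compounds, cut at about 42% in these data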;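 further: stock transfer was 100 nL into about 11 µL; a reference agonist was the positive control; negative values mostly stem from fluorescent compounds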
HNF4A DNA FP = change in binding of human HNF4A to DNA, primary screen, biochemical, fluorescence polarization, FITC-DNA | AID 1224865, 2016 | activity change, % at 10 µM | 0.3% of 360,000 active | 1 h | Hepatocyte nuclear factor 4-alpha (Homo sapiens), P41235; in the data active means activity change above about 30%, passing the limit was not always enough;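 further: controls were the assay level and a saturating level of protein; the project sought stronger binding though the title names inhibitors; some compounds called inactive have numbers as strong as hits; positive values seem to mean higher polarization but the record does not say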
Target sequence (P41235 whole entry, looked up): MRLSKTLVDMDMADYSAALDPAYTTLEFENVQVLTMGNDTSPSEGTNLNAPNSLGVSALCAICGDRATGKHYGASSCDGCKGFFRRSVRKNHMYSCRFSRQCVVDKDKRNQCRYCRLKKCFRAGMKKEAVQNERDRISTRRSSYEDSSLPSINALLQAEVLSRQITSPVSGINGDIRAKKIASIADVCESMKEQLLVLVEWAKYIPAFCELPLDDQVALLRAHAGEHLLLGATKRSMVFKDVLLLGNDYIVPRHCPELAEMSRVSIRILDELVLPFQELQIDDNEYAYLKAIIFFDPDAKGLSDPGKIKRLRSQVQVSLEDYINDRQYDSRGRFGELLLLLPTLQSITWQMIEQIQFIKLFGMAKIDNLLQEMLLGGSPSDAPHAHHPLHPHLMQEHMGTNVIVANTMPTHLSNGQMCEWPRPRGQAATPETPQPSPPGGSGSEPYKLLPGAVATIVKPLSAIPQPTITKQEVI
* = called active by the depositor; i = inactive; ? = inconclusive; nt = no result given.

SMILES	E coli growth	LANA-H2A inh	FGF22 binding	ALR H2O2 inh	UCH37 inh	Beta2AR agonist	HNF4A DNA FP
C#CCCOC(=O)N1C2=NC(C(=O)OC)=C(C(=O)OC)[C@@H]3N(Cc4ccccc4)c4ccccc4[C@]23C[C@H]1C(=O)OC	nt	3.5	nt	0	0.0	7	-5.3
Nc1nc(SCC(=O)N2CCN(c3ccc(F)cc3)CC2)n[nH]1	0.67	2.4	i	94*	1.5	-8	-5.2
COc1ccc(OCC(O)CNC(=O)c2ccc(C)cc2)cc1 (centres undefined)	0.68	-2.4	i	-3	-0.6	2	0.3
CCCCC1CCC(C(=O)N2CCOCC2)CC1 (centres undefined)	0.66	-4.0	i	9	2.7	12	-2.3
Cc1cccc(NC(=S)N2CCN(Cc3ccccc3)CC2)c1C	0.67	4.7	i	nt	-0.5	-1	-4.3
COCCNC(=O)c1ccccc1NC(=O)c1ccc(OC)c(OC)c1	0.66	-2.5	nt	-4	2.5	2	3.1
O=C(c1cc2ccccc2oc1=O)N(c1ccc(Cl)cc1)C1C=CS(=O)(=O)C1 (centres undefined)	nt	2.7	nt	1	nt	0	-0.7
COc1ccc(CCNC(=O)c2nnc(Cc3c(F)cccc3Cl)o2)cc1OC	0.67	9.4	nt	1	-1.8	2	0.0
O=C(/C=C/c1cc(Br)ccc1F)OCC(=O)N1CCCC1	0.67	-6.6	i	nt	0.0	-9	-0.9
O=C(COC(=O)COc1ccc(Cl)cc1)NC1CCCC1	0.7	0.0	i	-1	0.5	2	3.6
Cc1ccc(-n2c(Cc3cccc4ccccc34)n[nH]c2=S)c(C)c1	0.61	7.4	i	9	0.0	4	2.4
COc1ccccc1C1CC(c2cccc(NS(C)(=O)=O)c2)=NN1S(=O)(=O)c1ccccc1 (centres undefined)	0.64	-1.4	i	-2	5.7	-2	81*
CCOc1cc(CNCC(O)c2ccccc2)cc(Cl)c1OC (centres undefined)	0.65	-3.6	i	99*	0.5	0	-1.6
COc1ccc(-c2cnc(N)nc2-c2ccc(OC)cc2)cc1	0.69	-0.7	i	-3	-26	-8	-4.9
Cc1cc(C)cc(NC(=O)NNC(=O)c2cc3occc3[nH]2)c1	0.72	-4.9	i	2	2.6	-2	2.1
CCOC(=O)c1c(C#N)cnn1-c1ccc(C)cc1	0.76	1.5	nt	-5	2.7	12	0.1
Cc1ccccc1OCCCC(=O)Nc1ccc2c(c1)OCO2	0.65	-6.6	i	98*	0.9	0	3.2
CCOc1ccc(CN2CCC(C(=O)N3CCN(c4ccccc4F)CC3)CC2)cc1OC	0.67	7.5	nt	-2	4.3	-3	4.2
Cc1ccc(C(=O)CCC(=O)NN2C(=O)NC3(CCCCC3)C2=O)cc1	0.63	3.9	i	0	2.6	5	4.6
CCc1noc(C)c1C(=O)N1CCCC1	0.65	-3.6	i	-2	2.1	1	3.0
COc1ccc(-c2nnc3sc(-c4cccs4)nn23)cc1OC	0.66	-2.5	nt	-4	-9.3	7	0.6
O=C(CSc1nnc(Cc2ccsc2)o1)c1ccccc1	0.68	2.3	i	44	1.0	-5	3.0
CC(=O)c1ccc(C(=O)N2CCC(CO)(Cc3cccc(C(F)(F)F)c3)CC2)cc1	0.68	3.6	i	-4	4.6	12	1.1
CCCCOC(=O)CCn1[nH]c(=O)c2ccccc2c1=O	0.71	-2.2	nt	-8	-0.2	4	-1.7
Cc1[nH]c2ccccc2c1C(=O)C(=O)NCCCn1ccnc1	0.69	-3.0	i	-6	-1.4	-8	-3.6
COc1ccc(N2C(=O)CS(=O)C(c3ccccc3)C2=O)cc1 (centres undefined)	0.7	-16	i	98*	0.5	0	-1.2
COc1cc(/C=C(\C#N)C(=O)Nc2ccccc2)ccc1OCCN1CCOCC1	0.7	0.1	i	6	6.0	-1	4.4
CC(NC(=O)C1CC1)C(c1cccs1)N1CCN(c2ccccc2)CC1 (centres undefined)	0.74	-7.6	i	99*	1.0	9	-3.9
COc1cccc(CNC(=O)CCn2c(=O)oc3ccccc32)c1	0.65	-0.5	nt	-2	1.0	-2	-4.3
CCOC(=O)[C@@H]1[C@H]2COc3cc(OC)ccc3[C@H]2N2C(=O)N(c3cccc(Cl)c3)C(=O)[C@]12C	nt	3.2	nt	-8	1.1	2	2.7

Limited to Beta2AR agonist and HNF4A DNA FP, for some of the entries so far:
Compound | Beta2AR agonist | HNF4A DNA FP
COc1cc(/C=C(\C#N)C(=O)Nc2ccccc2)ccc1OCCN1CCOCC1 | -1 | 4.4
CC(NC(=O)C1CC1)C(c1cccs1)N1CCN(c2ccccc2)CC1 (centres undefined) | 9 | -3.9

(further entries)
SMILES	E coli growth	LANA-H2A inh	FGF22 binding	ALR H2O2 inh	UCH37 inh	Beta2AR agonist	HNF4A DNA FP
C=CC(COCc1ccccc1)N(C(=O)OC(C)(C)C)S(=O)(=O)c1ccccc1Br (centres undefined)	0.63	0.8	i	5	-4.3	5	-1.6
CCCCNC(=O)CSc1nc2ccccc2n1S(=O)(=O)c1ccc(Br)cc1	0.69	-2.3	nt	-2	6.9	2	0.2
CC(C)(C)[C@@H]1C=C(C(N)=O)O[C@H](OCc2ccc(CO)cc2)C1	nt	1.3	i	-5	4.8	7	-1.6
O=c1[nH]c2cc3c(cc2cc1C(c1nnnn1Cc1ccccc1)N1CCN2CCCC2C1)OCCO3 (centres undefined)	0.73	nt	nt	nt	-265	-1	9.4
COc1cc(OC)cc(-c2nnc(SCC(=O)N3CCOCC3)o2)c1	0.76	-1.4	nt	-9	0.4	7	0.9
NS(=O)(=O)c1ccc(NC(=O)CCC2CCCCC2)cc1	0.7	4.5	nt	18	4.9	-5	2.0
CCOC(=O)c1c(C)[nH]sc1=S	0.7	nt	nt	nt	8.2	3	1.5
CCN(CC(=O)Nc1ccc2c(c1)OCCO2)C(=O)/C=C/c1cccc(C(F)(F)F)c1	0.7	-4.9	i	0	2.5	-5	-1.9
C=CCOC(=O)C1C(=O)CC(C)(O)C(C(=O)OCC=C)C1c1ccc(OC)cc1 (centres undefined)	0.77	-0.4	nt	-17	2.0	-2	1.1
Cc1ccccc1-n1c(SCC(=O)N2CCOCC2)nc(O)c(Cc2ccccc2)c1=O	0.66	0.9	i	1	1.7	5	2.6
O=Cc1c(OCc2ccccc2)ccc2ccccc12	0.67	-1.2	i	-9	5.4	-3	-1.4
COCCCn1c(=O)c2ccccc2n(CC(=O)NCCC2=CCCCC2)c1=O	0.65	2.7	i	-11	5.1	2	-0.9
COc1cccc(CNC(C)(C)CO)c1OCc1ccc(Cl)cc1	0.7	0.7	i	-3	3.5	12	-13
c1ccc(CNc2nc(-c3cccs3)nc3ccccc23)nc1	0.7	-5.2	nt	49	-5.4	-2	-3.0
O=C(CSc1nc(-c2ccccc2)c(-c2ccccc2)[nH]1)Nc1nccs1	0.66	-6.1	i	?	3.2	11	0.5

Entries listed above marked active in ALR H2O2 inh:
Structure,LANA-H2A inh,ALR H2O2 inh,UCH37 inh,Beta2AR agonist
Nc1nc(SCC(=O)N2CCN(c3ccc(F)cc3)CC2)n[nH]1,2.4,94*,1.5,-8
CCOc1cc(CNCC(O)c2ccccc2)cc(Cl)c1OC (centres undefined),-3.6,99*,0.5,0
Cc1ccccc1OCCCC(=O)Nc1ccc2c(c1)OCO2,-6.6,98*,0.9,0
COc1ccc(N2C(=O)CS(=O)C(c3ccccc3)C2=O)cc1 (centres undefined),-16,98*,0.5,0
CC(NC(=O)C1CC1)C(c1cccs1)N1CCN(c2ccccc2)CC1 (centres undefined),-7.6,99*,1.0,9

(next part)
SMILES	E coli growth	LANA-H2A inh	FGF22 binding	ALR H2O2 inh	UCH37 inh	Beta2AR agonist	HNF4A DNA FP
CCn1cc(/C=C(\NC(=O)c2ccc(OC)c(OC)c2)C(=O)NCCN2CCOCC2)c2ccccc21	0.66	2.1	i	10	13	-1	4.8
Cc1nc2ccccc2nc1CSc1nncs1	0.69	-0.5	nt	23	7.1	-6	0.2
COc1ccc(CCNC(=O)c2ccccc2SC)cc1	0.71	-1.7	i	1	1.4	-1	0.8
O=C(COC(=O)C1CCC1)NC(=O)c1ccccc1	0.67	-1.6	i	-1	2.5	-3	-2.4
COc1ccc(C(CCNCc2ccc(OC)c(OC)c2)c2ccc(F)cc2)cc1 (centres undefined)	0.66	-0.9	i	-8	3.7	-7	0.8
COc1ccc(OC)c(-c2csc(NC(=O)C3c4ccccc4Oc4ccccc43)n2)c1	0.68	0.8	nt	-4	4.5	3	-1.8
CCOC(=O)N1CCC(NC(=O)Cn2cc3c(n2)CCCC3)CC1	0.74	2.5	nt	-4	0.1	6	2.8
O=C(CN1C(=O)NC2(CCCCC2)C1=O)N1CCN(S(=O)(=O)c2ccc(Cl)s2)CC1	0.66	-6.4	i	-2	-1.0	-3	1.7
Cc1cc(NC(=O)CSc2nnc(N)s2)c([N+](=O)[O-])cc1C	0.69	3.1	nt	5	2.3	5	-1.4
Oc1nc(Nc2ccccc2)sc1/C=C1\C=Nc2ccccc21	0.65	-0.1	i	nt	2.6	30	0.9
Nc1cccc2[nH]c(=O)c3ccccc3c12	nt	nt	i	nt	nt	-5	0.5
COc1ccc(N2CCN(CCS(=O)(=O)c3cc(Cl)ccc3Cl)CC2)cc1	0.65	-24	i	nt	2.3	-5	1.5
O=S(=O)(NC1CCC(NS(=O)(=O)c2c(F)cccc2F)CC1)c1ccc2c(c1)OCCO2 (centres undefined)	0.7	3.0	i	-3	-0.8	1	3.2
COc1ccccc1/C=C/C=N/NC(=O)Cc1cccn1C	nt	2.5	i	-1	nt	2	5.7
CCCCCN(C(=O)CCC(=O)OCC(=O)N1C(C)CCCC1C)c1c(N)n(CCCC)c(=O)[nH]c1=O (centres undefined)	0.73	-2.2	i	-4	3.9	-2	-0.9
Cc1ccc(Cn2c(CCNc3nc(-c4ccc(Cl)c([N+](=O)[O-])c4)cs3)nc3cc(C(=O)NCCCO)ccc32)cc1	0.65	-1.1	i	nt	0.8	26	2.7
COc1cc([N+](=O)[O-])ccc1NC(=O)Cn1ccsc1=N	0.66	-8.5	i	16	11	2	-0.9
COc1ccc(/C=C/C(=O)Nc2ccc(-c3nnc4n3CCCCC4)cc2)c(OC)c1	0.7	0.3	i	-13	-14	8	1.9
COC(=O)C1=C(C)NC(=O)/C1=C\c1cc(C)n(-c2cccc(C)c2)c1C	0.73	-4.6	nt	15	0.7	4	4.1
Cc1ccc(NC(=O)C(=O)Nc2ccccn2)cc1	0.71	1.5	i	-8	-17	-10	-3.4
O=C(Nc1ccccc1Cl)c1ccc(=O)[nH]n1	0.64	-0.1	i	-5	0.5	1	-1.0
NC(=O)COc1ccc(C2c3c(oc4ccccc4c3=O)C(=O)N2CC2CCCO2)cc1 (centres undefined)	0.75	197*	nt	-2	2.3	-11	-0.1
COc1ccc(C(=O)NC(=S)Nc2ccc3oc(=O)ccc3c2)cc1	nt	4.4	i	-4	nt	20	-0.6
Cc1oc(-c2ccc(Cl)cc2)cc1C(=O)O	0.66	-0.7	i	0	5.4	7	-6.5
O=c1c([N+](=O)[O-])cc(C(F)(F)F)cn1Cc1c(Cl)cccc1Cl	0.67	9.4	nt	-6	7.3	1	6.9
CN1CCN(Cc2ccc(OCc3ccccc3)cc2)CC1	0.69	1.3	nt	-8	7.5	1	-1.9
CCC(CC)C(=O)Nc1cccc(C(=O)Nc2ccc(S(N)(=O)=O)cc2)c1	0.66	-0.2	i	-6	3.7	6	-0.1
Cc1ccc(OCCNC(=O)CCNS(=O)(=O)c2ccc3ccccc3c2)cc1	0.71	-3.6	i	-8	4.7	5	-0.1
FC(F)(F)c1ccccc1NC(=S)N1CCCCCC1	0.7	3.3	i	-10	-1.4	2	-0.4

These rows are one share of the data, so the mix of outcomes need not match the whole.
